Source: PubChem
HPGD block – blocks human HPGD enzyme activity; Potency, µM, for inactives: at the top dose activity change, negative = inhibition, most hits filed as inhibitors; AID 894; P15428; purified HPGD, NADH fluorescence kinetic, PGE2 substrate; 150,000 tested, 4.3% active; active = well fitted inhibition curve with a large enough effect (not every such curve was filed as active); inconclusive = small, poorly fitted or top-dose-only effect, or another doubt; inactive = no such curve, though single readings can be large or run the other way;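 also: top concentration of the series not given in the record; plate controls included wells without enzyme; inactives centre near -10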
Target sequence (P15428 whole entry, looked up): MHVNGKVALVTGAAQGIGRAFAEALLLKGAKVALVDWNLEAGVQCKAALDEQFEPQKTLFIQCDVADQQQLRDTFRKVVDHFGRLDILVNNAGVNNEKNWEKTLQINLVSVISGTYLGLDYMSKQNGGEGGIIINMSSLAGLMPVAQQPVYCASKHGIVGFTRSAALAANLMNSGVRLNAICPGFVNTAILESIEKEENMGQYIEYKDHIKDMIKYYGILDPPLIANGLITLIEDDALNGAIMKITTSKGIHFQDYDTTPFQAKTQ
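20 nM HPGD preincubated 15 min at room temperature with compound in 50 mM Tris-HCl pH 8, 0.01% Tween 20. Started with 1 mM NAD+ and 30 uM prostaglandin E2; NADH fluorescence (360/450 nm) read 5 times over 30-s intervals, last minus first.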
An asterisk follows results filed as active; ? = inconclusive; & = joins results of further samples; ! = a repeat was not active; [ ] = dose if it differs, or a comment. % is scaled to controls: 0 for no effect and ±100 for the full control effect; potency is read from the fitted curve at half-maximal effect. Some of the compounds tested, so the mix of outcomes need not match the whole.

HPGD block | SMILES
-15% | COc1ccc2nc(C)cc(SCC(=O)Nc3c(C)cccc3C)c2c1
-29% | COc1ccc(-c2coc3cc(OC(C)=O)cc(OC(C)=O)c3c2=O)cc1
? | CCc1ccc2[nH]c(=O)c(CN(CCCN3CCOCC3)C(=O)Nc3ccc(F)cc3)cc2c1
-4% | C/C(NC1CCCCC1)=C(/C#N)C(=O)NCCN1CCOCC1
-2% | O=S(=O)(c1cccs1)N1CCN(CC(O)COc2cccc(Br)c2)CC1 (configuration not stated)
-1% | Cc1ccc(N(CC(=O)NC2CCCCCC2)S(=O)(=O)c2c(C)nn(C)c2C)cc1
-14% | O=C(N/N=C/c1ccncc1)c1cc(Br)ccc1OCc1ccccc1
-8% | CO/N=C/NC(=O)N1OC[C@@H]2COc3ccc4ccccc4c3[C@@H]21
-8% | Cc1ccc2c(C(=O)CN3CCCCC3CCO)c(C)[nH]c2c1 (configuration not stated)
-23% | COC(=O)c1cccc(NC(=O)c2cccs2)c1C
-6% | CCCNc1ncnc2nc[nH]c12
-15% | COc1ccc(-c2cc(N)n(S(=O)(=O)c3ccc(C)cc3)n2)c(OC)c1
-2% | O=C(CN1C(=O)c2cccc3cccc(c23)C1=O)N1CCN(c2ccccn2)CC1
-19% | CCOC(=O)CN1CC23C=CC(O2)C(C(=O)Nc2ccc(OC)cc2OC)C3C1=O (configuration not stated)
-6% | CCOc1cccc(OCCOCCN(C)Cc2ccccc2)c1
-9% | CC(NCc1cccn1C)c1ccccc1 (configuration not stated)
-21% | COc1ccc2cc(CCNC(=O)c3c(-c4ccccc4Cl)noc3C)c(=O)[nH]c2c1
-3% | CC1CCN(C(=O)CN(C2CCCCC2)S(C)(=O)=O)CC1
-21% | C=CCc1c(O)nc(SCC(=O)c2ccccc2)[nH]c1=O
0% | Cc1ccc(CSc2nncn2-c2ccccn2)cc1
-27% | O=C(NCc1ccccn1)c1ccc(N2CCCC2=O)cc1
1% | COc1cc(CNC(C)(C)C)cc(Br)c1OCc1cccs1
-13% | CSc1nc2c(c(=O)[nH]1)C(c1cccs1)C1=C(CCCC1=O)N2 (configuration not stated)
? | Cc1cccc(Nc2nc(NCc3ccco3)c3ccccc3n2)c1
-6% | CCOC(=O)c1ccc(C(=O)OCC)nc1
-7% | CCCCOC(=O)Nc1nc(CC(=O)OCC)cs1
-9% | O=C(NCc1ccccc1)NC1(C(=O)N2CCN(c3ncccn3)CC2)CCCCC1
-13% | Cc1ccc(S(=O)(=O)NC(CC(=O)NCc2ccco2)c2ccco2)cc1 (configuration not stated)
-19% | COc1ccc(S(=O)(=O)Nc2cc3c4c(oc3c3ccccc23)CC(C)(C)CC4=O)cc1
-10% | Cc1cccnc1
-2% | Cc1ccc(NC(=O)CCC(=O)NNC(=O)Cc2ccccc2)cc1C
-5% | Cc1ccccc1OC(=O)Cn1c(C(F)(F)F)nc2ccccc21
32%[activator] | COc1cccc(/C=N/NC(=O)c2ccc(COc3ccc(Cl)cc3Cl)o2)c1
13µM* | Cc1ccc(C(=O)NCc2ccc(Cl)c(Cl)c2)o1
-9% | O=S(=O)(c1ccccc1)N1CCN(c2nc3ccccc3s2)CC1
3%&-9% | Cc1ccc(S(=O)(=O)N2CCC(=O)N(CCOC(=O)Nc3ccc(C)c(C)c3)CC2)cc1
-12% | COc1ccccc1C(=O)N/N=C(\C)c1ccc(NC(=O)C2CC2)cc1
-13% | COCCCN1C(=O)c2ccc(C(=O)Nc3cccc(OC)c3)cc2C1=O
-10% | O=C(CN1CCC(n2nnc3cc(C(F)(F)F)ccc32)CC1)Nc1ccc2c(c1)CCC2
? | CCOC(=O)c1[nH]c2cc3c(cc2c1NC(=O)CN1CCC2(CC1)OCCO2)OCO3
-18% | Cn1c(C(=O)NCCCN2CCN(c3ccccc3F)CC2)cc2c(=O)[nH]c3ccccc3c21
-7% | CCN(CC)S(=O)(=O)c1cccc(-c2nnc(SCC(=O)NC)n2CCc2ccccc2)c1
-7% | OCCSc1nc(-c2ccccc2)nc2c1CCC2
? | CCOC(=O)c1c(NC(=O)C(=O)N/N=C(\C)c2ccc(OC)cc2)sc2c1CCCCC2
-2% | Cc1nc2c(o1)CCc1ccccc1C2N1CCN(C)CC1 (configuration not stated)
-1% | O=C(CN1C(=O)NC(Cc2ccccc2)C1=O)Nc1ccccc1 (configuration not stated)
-8% | COc1cc(OC)cc(C(=O)Nc2ccc(-n3cnnn3)c(C)c2)c1
3% | CCCCC(=O)Nc1ccc(N2CCN(S(C)(=O)=O)CC2)cc1
-18% | COC(=O)/C(=C\Nc1ccc(Cl)c2ccccc12)c1ncc(C(F)(F)F)cc1Cl
1% | CCOC(=O)C1=C(C)Nc2ccccc2N=C1NC(=O)c1cccc(S(=O)(=O)N(C)C)c1
-25% | CCN(CC(=O)Nc1ccccc1C(=O)OC)S(=O)(=O)c1ccc(OC)cc1
-10% | Oc1ccccc1-c1nc(NCc2ccco2)c2ccccc2n1
? | Fc1cccc2sc(Nc3nc4ccccc4s3)nc12
-11% | Cc1csc(SCC(=O)c2ccc(S(=O)(=O)N3CCOCC3)cc2)n1
-15% | Cc1ccc(C)c(N2CCN(C(=O)CC3Sc4ccccc4NC3=O)CC2)c1 (configuration not stated)
-17% | COc1ccc(C(=O)OCC(=O)NC(=O)CCSc2ccccc2)cc1

(more compounds)
HPGD block | SMILES
-17% | Cc1ccc(C(=O)N/C(=C\C=C\c2ccccc2)C(=O)NCc2ccco2)cc1
1% | CCn1nc(CC(=O)Nc2nnc(CC(=O)N3CCOCC3)s2)c2ccccc2c1=O
2% | CCC(C)(C)NC(=O)C(c1ccc(C)o1)N(C(=O)c1csnn1)c1cccc(F)c1 (configuration not stated)
10µM* | O=C(c1cncc(Br)c1)N1CCc2ccccc2C1
-22% | Cc1nc2c(sc3nc4c(cc32)COC(C)(C)C4)c(=O)o1
-4% | Cc1cc(C)n(/N=C\c2c(O)ccc3ccccc23)c(=O)c1C(N)=O
-9% | CCCOc1ccc(C(=O)Nc2ccc(C)cc2[N+](=O)[O-])cc1
-9% | COc1ccc(N(CC(=O)NCc2ccc3c(c2)OCO3)S(=O)(=O)c2c(C)nn(C)c2C)cc1
? | COC(=O)c1cnn2c3c(c(C)nc12)CCCC3
-11% | O=C(CSc1nnc(Cc2ccccc2)o1)NC1CCCCC1
-14% | CCN(Cc1ccccc1)S(=O)(=O)c1cc(C(=O)NC(C)C2CC3CCC2C3)ccc1OC (configuration not stated)
-9% | Cc1c(O)nc(SCC(=O)Nc2ccc3c4c(cccc24)CC3)n(-c2ccccc2)c1=O
? | COc1ccc(-c2nc(C(=O)N3CCN(C)CC3)sc2-c2ccc(OC)cc2)cc1
-13% | CCN(CC)S(=O)(=O)c1ccc(/C=C/C(=O)Nc2cccc(F)c2)cc1
-11% | CCC(C)(C)NC(=O)Cc1ccccc1OC
-6% | Clc1ccc2c(c1)C1=C(C(c3ccncc3)O2)C(c2ccc(Br)cc2)n2ncnc2N1 (configuration not stated)
? | COc1ccc(OC)c2[nH]c(=O)c(CCNS(=O)(=O)c3ccc(Cl)cc3)cc12
-8% | COCC(=O)N(Cc1cc2ccc(C)cc2[nH]c1=O)c1ccc(OC)cc1
-9% | CCCc1cc(=O)[nH]c(SCC(=O)N(C)C2CCS(=O)(=O)C2)n1 (configuration not stated)
-22% | COc1cc2c(cc1NC(=S)NC(=O)/C=C/c1ccc(OC)c(OC)c1)oc1ccccc12
? | CNc1nnc(-c2ccncc2)s1
? | CCCNC(=O)c1c(N)n(-c2cc(OC)cc(OC)c2)c2nc3ccccc3nc12
-12% | Cc1ccc(C)c(NCCC#N)c1
35µM*! | O=C1c2cccc(O)c2C(=O)c2c(O)cccc21
-5% | COc1ccccc1CN1CC[C@@]2(CCCN(C(=O)c3cccc(F)c3)C2)C1
-17% | O=S(=O)(c1ccc(Cl)c(Cl)c1)c1snnc1-c1ccccc1
? | CC(NC(=O)c1cccc(F)c1)C(c1cccs1)N1CCN(C)CC1 (configuration not stated)
-9% | COC(=O)N/N=C(\C)c1ccccc1OC(F)F
-16% | Cc1cc2ncn(/N=C/c3ccc([N+](=O)[O-])s3)c2cc1C
-17% | Cc1ccc(Nc2nc(N)c([N+](=O)[O-])c(N3CCC(C)CC3)n2)cc1C
-17% | COC(=O)Cc1c(C)nc2nc(NCc3cccc([N+](=O)[O-])c3)[nH]n2c1=O
-21% | O=C(N/N=C1\CCCc2c1[nH]c1ccc([N+](=O)[O-])cc21)c1ccncc1
? | Cc1ccc2nc(-c3ccc(NC(=O)COC(=O)c4ccc([N+](=O)[O-])o4)cc3)sc2c1
-13% | Cn1c(=O)c(=O)n(C)c2cc(S(=O)(=O)N3CCN(C4CCCCC4)CC3)ccc21
? | CCN(CC)c1ccc(/C=N/NC(=O)c2ccc(O)cc2)cc1
-9% | CC(C)(C)NC(=O)CSc1nnc(-c2ccncc2)n1Cc1ccccc1
-11% | CC(C)NC(=O)N1CCC2(CC1)CCN(C(=O)c1cnccn1)CC2
-17% | CCCCn1c(N)c(S(=O)(=O)c2ccc(C)cc2)c2nc3ccccc3nc21
-15% | Cc1ccc(-c2nnnn2CS(=O)(=O)c2ccccc2)cc1
-14% | O=C(Nc1ccc(Cl)cn1)c1cccc(F)c1
16µM* | O=c1c(O)c(Br)ccc2c(Br)c(O)c(O)c(O)c12
-2% | CCc1nnc(NC(=O)Cn2c(=O)oc3ccccc32)s1
-11% | O=C(NCn1cnccc1=O)c1ccccc1
-9% | S=C(NCc1ccc(Cl)cc1)NC12CC3CC(CC(C3)C1)C2
-8% | Cc1ccc(C)c(NC(=O)COC(=O)CC2c3ccccc3CCN2S(=O)(=O)c2ccc(F)cc2)c1 (configuration not stated)
-6% | Nc1ccc(-n2nnnc2CN2CCOCC2)cc1
0% | COc1ccc(NC(=O)N2CCC3(CC2)CCN(C(=O)c2cccc(F)c2)CC3)cc1
-5% | CC(C)C(=O)NC(Nc1ccc(S(N)(=O)=O)cc1)C(Cl)(Cl)Cl (configuration not stated)
-19% | C=C(C)C1CC=C(C)/C(=N/NC(=O)c2ccc(NC(=O)c3cccc(C)c3)cc2)C1 (configuration not stated)
-2% | Cc1ccccc1N=C1SCC(=O)N1Cc1ccccc1
0% | CSC(N)=NCCCC(N)C(=O)O (configuration not stated)
-15% | CC(/C=C1\SC(=S)N(NC(=O)c2cccc(O)c2)C1=O)=C\c1ccccc1
-5% | CCOC(=O)N1CCN(C(=O)c2ccc(CS(=O)(=O)c3c(Cl)cccc3Cl)o2)CC1
-19% | O=C(/C=C/c1cn(CC(O)CN2CCCCC2)c2ccccc12)c1cccs1 (configuration not stated)
0% | CCOC(=O)c1ccc(NC(=O)NC2CC3CCC(C2)N3Cc2nnnn2Cc2ccco2)cc1 (configuration not stated)
-14% | O=C(COC(=O)C1CC2C=CC1C2)Nc1ccc2c(c1)OC(F)(F)O2 (configuration not stated)

Carrying on:
HPGD block | SMILES
0% | CCCOc1ccccc1Nc1nnc(C)c(=O)[nH]1
? | Cc1c(C(=O)N2CCOCC2)[nH]c2ccc(OCc3ccccc3)cc12
-5% | CCCCCNC(=O)CN(c1ccc2c(c1)OCO2)S(C)(=O)=O
-3% | Cc1ccc(O)c(-c2cc(C(F)(F)C(F)F)nc(-c3ccccc3)n2)c1
-28% | COc1ccc(CCNc2oc(Cc3cccc4ccccc34)nc2C#N)cc1OC
? | COc1ccccc1-c1nnc(NC(=O)c2ccc(S(=O)(=O)N(C)Cc3ccccc3)cc2)o1
0% | CO[C@]12C[C@@H](COC(=O)c3cncc(Br)c3)CN(C)[C@@H]1Cc1cn(C)c3cccc2c13
3% | CCOC(=O)C(C)Sc1nc2c([nH]c3ccccc32)c(=O)n1C (configuration not stated)
3% | CC(C)(C)NCCCOc1ccc(Cl)cc1C(C)(C)C
-9% | CCOc1ccccc1NC(=O)CSc1nnc(CNC(=O)COc2ccc(Cl)cc2)o1
-10% | N#C/C(=C\c1ccccc1Cl)C(=O)NC(=O)Oc1ccccc1
1% | Cc1nnc(NC(=O)CSc2ccccn2)s1
2% | O=C(CC12CC3CC(CC(C3)C1)C2)N1CCN(S(=O)(=O)c2cccs2)CC1
1% | CCCCNC(=O)Nc1cc(C(=O)OC)ccc1Cl
-16% | Cc1ccc(OCC(=O)N/N=C\c2c(C)[nH]n(-c3ccccc3)c2=O)c([N+](=O)[O-])c1
